Assay outcomes (PubChem)
Env fusion inh – blocks HIV Env-driven cell-cell fusion; inhibition, % at 12.3 µM; HeLa-JRFL Env/CEM21 cell fusion, luciferase; 1.1% of 360,000 active; AID 651610;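 active = mean replicate inhibition score of at least 50 and every replicate individually at or above 50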;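 also: 0% = plate neutral controls and 100% = maraviroc near 300 nM; one replicate is shown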
UUG fidelity – yeast start codon fidelity modulation. S. cerevisiae UUG-firefly luciferase reporter, luminescence/redox ratio. activity score, % at 18.7 µM. 0.13% of 350,000 active;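 active = replicate mean at a twofold rise or more, about +100% in these data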;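 also: firefly luciferase made from a UUG start codon reports start codon fidelity; reporter light over untreated wells divided by growth signal over untreated wells; some hits fall short of that in this replicate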
CSC inhib – cancer stem cell inhibition; cancer stem cell-like cells viability, luminescence; inhibition, % at 7.5 µM; 1.1% of 300,000 active; AID 2717;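 active = mean at 75% or more and at least half the replicates too; tested in HMLE shEcad cells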;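 also: 0% = median of negative and 100% = median of positive control wells; the first replicate is given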
eIF4H inh – inhibitors of RNA binding by human eIF4H. Q15056. eIF4H fluorescence polarization binding assay. inhibition, % at 35 µM. 0.94% of 290,000 active. AID 2012;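 active = 50% or more with normal probe brightness, or confirmed in later tests; about a fifth of its hits are not listed in these tables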;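 also: calls also rest on retests at 20 µM and on dose response follow-up; 0% = protein and probe with vehicle and 100% = probe without protein; strong numbers were not always called active; many hits fall short of the cut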
PABP polyA inh – PABP-poly(A) binding inhibition | P11940 | PABP-poly(A) RNA binding, fluorescence polarization | inhibition, % at 35 µM | 1% of 290,000 active | AID 2014;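 active = 50% or more with normal probe brightness, or confirmed in later tests; about a fifth of its hits are not listed in these tables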;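 also: calls also rest on retests at 20 µM and on dose response follow-up; controls were probe without protein and protein plus probe with vehicle; some compounds called inactive have numbers as strong as hits; many hits fall short of the cut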
Target sequence (P11940 whole entry, looked up): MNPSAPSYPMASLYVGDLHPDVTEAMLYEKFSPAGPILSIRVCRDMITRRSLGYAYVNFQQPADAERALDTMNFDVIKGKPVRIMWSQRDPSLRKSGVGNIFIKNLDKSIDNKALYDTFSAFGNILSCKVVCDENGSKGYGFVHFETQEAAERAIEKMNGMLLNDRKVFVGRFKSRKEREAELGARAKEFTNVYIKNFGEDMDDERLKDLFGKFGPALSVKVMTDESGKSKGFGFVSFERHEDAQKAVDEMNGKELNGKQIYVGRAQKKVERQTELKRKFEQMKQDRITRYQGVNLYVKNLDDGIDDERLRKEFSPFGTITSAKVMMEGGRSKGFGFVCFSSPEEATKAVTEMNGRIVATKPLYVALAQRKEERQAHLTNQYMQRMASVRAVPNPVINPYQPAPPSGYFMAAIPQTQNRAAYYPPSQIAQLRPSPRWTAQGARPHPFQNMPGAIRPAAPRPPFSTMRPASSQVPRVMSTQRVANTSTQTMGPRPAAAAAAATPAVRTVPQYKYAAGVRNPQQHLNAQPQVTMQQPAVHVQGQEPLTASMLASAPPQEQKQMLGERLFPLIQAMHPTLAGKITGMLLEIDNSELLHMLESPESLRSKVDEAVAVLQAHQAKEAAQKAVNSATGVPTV
Rce1 inh – blocks yeast Ras-converting enzyme | Q03530 | yeast membranes, quenched prenylated peptide cleavage fluorescence | calls only | 0.27% of 290,000 active | AID 2563;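 active = fall in fluorescence gain of 50% or more versus controls, with final raw signal at or below 3038400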;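 also: plate controls were neutral control wells for no effect and wells lacking membranes for full effect; tested at 10 µM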
Target sequence (Q03530 whole entry, looked up): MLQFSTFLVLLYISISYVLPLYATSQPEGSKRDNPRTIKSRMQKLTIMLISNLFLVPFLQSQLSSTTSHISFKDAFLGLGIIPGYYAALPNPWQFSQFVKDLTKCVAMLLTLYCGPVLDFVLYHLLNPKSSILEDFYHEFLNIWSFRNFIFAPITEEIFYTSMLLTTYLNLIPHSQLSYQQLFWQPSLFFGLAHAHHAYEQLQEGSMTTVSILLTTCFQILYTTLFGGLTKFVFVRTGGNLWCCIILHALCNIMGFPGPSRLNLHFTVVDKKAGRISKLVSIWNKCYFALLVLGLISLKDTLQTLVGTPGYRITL
MT1-MMP act inh – inhibitors of human MT1-MMP activation | HT1080 RFP-PRO-GFP cells, GFP/RFP ratio fluorescence, overnight; percent of plate control window, DMSO zero | AID 651647 | P50281 | 0.061% of 360,000 active | GFP/RFP ratio change, % at 20 µM;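 active = GFP/RFP ratio change of at least 30% with cell ATP level not reduced by more than half and red fluorescence within 50% of control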; also: strong numbers were not always called active
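Assay system: RFP-PRO-GFP reporter HT1080 cells; read-out basis: GFP/RFP fluorescence ratio; benchmarks: DMSO wells and RFP-L50D-GFP cells; doses: 20 µM single dose, 1% DMSO; schedule: overnight cell settling, then overnight compound exposure, 37 °C, 5% CO2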
MT1-MMP act inh RFP – further read-out of MT1-MMP act inh, marked with its call; RFP signal change, %; measured here: RFP expression control read;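 0 = vehicle wells; hits needed this value within 50% of zero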
Numbers without * were called inactive; i = inactive; nt = no result given; & = joins results of further samples. A portion of the library, so the mix of outcomes need not match the whole.

The first 7 entries, to show the layout:
(1) CC(C)(C)NC(=O)COc1coc(CN2CCN(Cc3ccccc3)CC2)cc1=O
(2) O=C(Cn1cnc2ccccc2c1=O)OCC(=O)c1ccc2c(c1)OCCO2
(3) COC(=O)c1cccc(NS(=O)(=O)c2ccc(NC(C)=O)cc2)c1C
(4) CCOC(=O)c1nn(-c2ccc(F)cc2)c2nc(CC(C)C)c(C#N)c(=O)n12
(5) Cc1cc(C)c(C(=O)NCC2CCCO2)c(C)c1C(=O)NCC1CCCO1 (stereo not drawn)
(6) O=C(Nc1nnc(-c2ccco2)o1)c1ccc(Cl)cc1
(7) COc1cc(/C=N/NC(=O)C(=O)NCc2cccnc2)cc(OC)c1OC
Compound,1,2,3,4,5,6,7
Env fusion inh,6,-49,-1,-21,9,-2,-8
UUG fidelity,-13,nt,-5,-22,5,-24,0
CSC inhib,5,-12,13,-2,-9,47,-8
eIF4H inh,-5,2,4,-3,-1,6,23
PABP polyA inh,-8,-4,-1,1,11,5,32
Rce1 inh,i,i,i,i,i,i,i
MT1-MMP act inh,-1,4,5,7,2,4,0
MT1-MMP act inh RFP,5,5,-1,38,4,2,4

The listing (from the top)
(1) CC(C)(C)NC(=O)COc1coc(CN2CCN(Cc3ccccc3)CC2)cc1=O
(2) O=C(Cn1cnc2ccccc2c1=O)OCC(=O)c1ccc2c(c1)OCCO2
(3) COC(=O)c1cccc(NS(=O)(=O)c2ccc(NC(C)=O)cc2)c1C
(4) CCOC(=O)c1nn(-c2ccc(F)cc2)c2nc(CC(C)C)c(C#N)c(=O)n12
(5) Cc1cc(C)c(C(=O)NCC2CCCO2)c(C)c1C(=O)NCC1CCCO1 (stereo not drawn)
(6) O=C(Nc1nnc(-c2ccco2)o1)c1ccc(Cl)cc1
Compound,1,2,3,4,5,6
Env fusion inh,6,-49,-1,-21,9,-2
UUG fidelity,-13,nt,-5,-22,5,-24
CSC inhib,5,-12,13,-2,-9,47
eIF4H inh,-5,2,4,-3,-1,6
PABP polyA inh,-8,-4,-1,1,11,5
Rce1 inh,i,i,i,i,i,i
MT1-MMP act inh,-1,4,5,7,2,4
MT1-MMP act inh RFP,5,5,-1,38,4,2

(7) COc1cc(/C=N/NC(=O)C(=O)NCc2cccnc2)cc(OC)c1OC
(8) CCN(C(=O)c1c([N+](=O)[O-])cnn1C)c1ccccc1
(9) Nc1ccc(-n2nc(C(F)(F)F)cc2C(F)(F)F)cc1
(10) CCOc1ccc(S(=O)(=O)NCCC(=O)NCC(c2cccs2)N(C)C)cc1 (stereo not drawn)
(11) COCc1nnc(NC(=O)c2ccccc2[N+](=O)[O-])s1
(12) Cc1ccc(CNC(=O)COC(=O)CSc2cc(C)c(Br)cc2C)cc1
Compound,7,8,9,10,11,12
Env fusion inh,-8,2,-3,7,-14,-15
UUG fidelity,0,-15,-7,-6,nt,nt
CSC inhib,-8,nt,-14,-10,-10,-5
eIF4H inh,23,nt,-9,nt,-10,-2
PABP polyA inh,32,nt,9,nt,-7,-8
Rce1 inh,i,nt,i,i,i,i
MT1-MMP act inh,0,-2,-2,2,2,1
MT1-MMP act inh RFP,4,2,-1,0,6,5

(13) COC(=O)/C=C(\C)NC(=O)c1ccc(F)cc1
(14) CCCc1cc(=O)[nH]c(SCC(=O)N(C)CC(=O)Nc2ccccc2CC)n1
(15) CCOc1ccc(NC(=O)CC2C(=O)N(c3ccccc3)C(=O)N2Cc2ccccn2)cc1 (stereo not drawn)
(16) CC1(C)Oc2ccc3ccc(=O)oc3c2[C@@H](O)[C@H]1O
(17) C=CCSc1nc(C)c(CCCC)c(=O)[nH]1
(18) C[C@H]1CN([C@@H](C)CO)C(=O)CCCn2cc(nn2)CO[C@@H]1CN(C)C(=O)OCc1ccccc1
Compound,13,14,15,16,17,18
Env fusion inh,nt,-3,-10,-3,9,24
UUG fidelity,-12,-6,-6,-26,nt,4&-5
CSC inhib,-7,10,2,-13,0,nt
eIF4H inh,0,0,4,nt,0,nt
PABP polyA inh,-9,-5,2,nt,1,nt
Rce1 inh,i,i,i,nt,i,nt
MT1-MMP act inh,2,5,3,5,1,0
MT1-MMP act inh RFP,5,6,2,1,1,4

(19) COc1cccc(NC(=O)CNC(=O)c2cccs2)c1
(20) O=C1C2CC=C(Cl)CC2C(=O)N1CC1OCCc2ccccc21 (stereo not drawn)
(21) c1ccc2c(-c3ccc(OCCN4CCCCC4)cc3)c(-c3ccsc3)sc2c1
(22) O=C(Nc1nc2ccccc2[nH]1)c1cccc(F)c1
(23) O=C(O)C1CCC(Cn2c(SCc3cc(=O)n4cc(Cl)ccc4n3)nc3ccsc3c2=O)CC1 (stereo not drawn)
(24) N=c1c(C(=O)NCC2CCCO2)cc2c(=O)n3ccccc3nc2n1Cc1ccc(F)cc1 (stereo not drawn)
Compound,19,20,21,22,23,24
Env fusion inh,nt,-127,17,-122,-35,6
UUG fidelity,-10,-8,-13,-34,nt,4
CSC inhib,7,23,103*,25,-7,-2
eIF4H inh,-11,17,nt,-9,-2,-1
PABP polyA inh,-2,7,nt,2,3,-5
Rce1 inh,i,i,nt,i,i,i
MT1-MMP act inh,-2,-4,1,7,5,-1
MT1-MMP act inh RFP,0,4,-2,3,0,-2

(25) COc1cccc(C(=O)Nc2ccc(C(=O)O)cc2)c1
(26) Cc1cnnn1-c1ccc(C(=O)CCl)cc1
(27) CCC(C)[C@H](NC(=O)NCc1ccc(S(N)(=O)=O)cc1)C(=O)OC (stereo partly drawn)
(28) Cc1nc(NC(=O)CSc2nncs2)c(Cl)cc1Cl
(29) CC1CN(C(=O)CCc2ccccc2)C(C)CN1C(=O)CCc1ccccc1 (stereo not drawn)
(30) CCCCn1nnnc1SCC(=O)NC1CCCCC1
Compound,25,26,27,28,29,30
Env fusion inh,-82,28,12,-11,nt,0
UUG fidelity,1,-14,-11,-10,-7,-5
CSC inhib,-1,4,-2,-12,1,9
eIF4H inh,2,0,-1,-4,0,-11
PABP polyA inh,10,22,-5,1,16,-1
Rce1 inh,i,i,i,i,i,i
MT1-MMP act inh,-6,0,2,-4,6,0
MT1-MMP act inh RFP,-3,6,4,2,3,1

(31) O=C(NCc1ccncc1)/C(=C/c1cccc([N+](=O)[O-])c1)NC(=O)c1ccccc1
(32) COC(=O)c1cc(Br)c(=O)n(CCN2CCCC2)c1
(33) COc1cc(NC(=O)Cc2cccs2)cc(OC)c1
(34) O=C(CSc1nc2ccccc2c(=O)n1CCCN1CCOCC1)NCCc1ccccc1
(35) O=C(NC1CCCCC1)c1cccc2c1C(=O)c1ccc(N3CCCC3)cc1S2(=O)=O
(36) CNC(=O)Nc1cccc(C(F)(F)F)c1
Compound,31,32,33,34,35,36
Env fusion inh,-14,-73,nt,-6,14,-54
UUG fidelity,-21,-17,-10,-31,-8,-15
CSC inhib,10,3,-20,3,nt,-3
eIF4H inh,-3,2,-8,nt,nt,-11
PABP polyA inh,-16,1,12,nt,nt,-11
Rce1 inh,i,i,nt,nt,nt,i
MT1-MMP act inh,3,0,-7,-4,-111,-4
MT1-MMP act inh RFP,4,4,-3,-2,0,2

(37) CC1(C)OC(=O)N(c2ccccc2)C12C=Cc1c(ccc3ccccc13)O2 (stereo not drawn)
(38) CN(CC1CCN(CCc2cccc(C(F)(F)F)c2)CC1)C(=O)c1ccc(F)cc1
(39) Cc1cc(C)n(-c2ccc(C(=O)OCC(=O)Nc3ccc(Cl)cc3[N+](=O)[O-])cc2)n1
(40) CCOc1ccc(OCC(=O)OCC(=O)N(CC(C)C)c2c(N)n(Cc3ccccc3)c(=O)[nH]c2=O)cc1
(41) Cc1cccc(C)c1NC(=O)c1cnccn1
(42) N#Cc1cccc(CN2CCC(=O)N(CCO)CC2)c1
Compound,37,38,39,40,41,42
Env fusion inh,61,7,25,27,-20,17
UUG fidelity,-17,-8,nt,-4,-2,-17
CSC inhib,-15,17,8,30,-2,9
eIF4H inh,-5,-6,-8,nt,5,-6
PABP polyA inh,6,-4,39,nt,-7,-4
Rce1 inh,i,i,i,i,i,i
MT1-MMP act inh,-6,3,2,-4,1,4
MT1-MMP act inh RFP,-13,-2,1,2,1,3

(43) CC(NCc1ccc2c(c1)OCO2)C(=O)NC1CCCCC1 (stereo not drawn)
(44) Cc1ccc(C(=O)N/C(=C\c2ccccc2)C(=O)NCCCn2ccnc2)cc1
(45) C=CCN(C(=O)CCC(=O)Nc1cc(C)on1)C(C(=O)NC1CCCC1)c1ccc(Cl)cc1 (stereo not drawn)
(46) COc1ccc(-c2cc3c(=O)n(CC(=O)NCCCN4CCN(Cc5ccccc5)CC4)ncn3n2)cc1
(47) COc1cc([N+](=O)[O-])cc(/C=N\NC(=O)C2COc3ccccc3O2)c1O (stereo not drawn)
(48) Fc1ccc(NC(=S)N2CCCN(c3ccc(C(F)(F)F)cn3)CC2)c(F)c1
Compound,43,44,45,46,47,48
Env fusion inh,-6,6,34,5,0,61*
UUG fidelity,nt,nt,9,-72,nt,-19
CSC inhib,-4,-16,-6,-1,21,15
eIF4H inh,2,-9,16,nt,22,20
PABP polyA inh,3,1,7,nt,-13,-1
Rce1 inh,i,i,i,i,i,i
MT1-MMP act inh,1,-1,-3,7,-1,5
MT1-MMP act inh RFP,3,3,-1,-17,1,-30

(49) Cc1ccc2nc(Cl)c(/C=N/NC(=O)[C@H]3C[C@@H]3c3ccccc3)cc2c1
(50) CC1(C)CC(N2CCC(=O)N(C3CC(C)(C)NC(C)(C)C3)C2)CC(C)(C)N1
(51) C/C(=N\NC(=O)c1cccnc1)c1c(O)cc(C)oc1=O
(52) COCCN1C(=O)C(=O)/C(=C(/O)c2cccc(S(=O)(=O)N(C)C)c2)C12C(=O)N(C)c1ccccc12 (stereo not drawn)
(53) CCCN(CCC)CCCNC(=O)c1nn(-c2cccc(OC)c2)c(=O)c2ccccc12
(54) Cc1cc(C(=O)N2C(C)CCCC2C)no1 (stereo not drawn)
(55) CC(C)CCNC(=O)c1ccccc1SCC(=O)NC1CCCCCCC1
Compound,49,50,51,52,53,54,55
Env fusion inh,20,nt,nt,nt,1,5,12
UUG fidelity,nt,-19,-11,-6,nt,-7,2
CSC inhib,8,-7,-7,1,-5,4,-11
eIF4H inh,-6,7,-19,-3,-3,6,nt
PABP polyA inh,-2,8,-1,-2,-3,5,nt
Rce1 inh,i,i,i,i,i,i,nt
MT1-MMP act inh,3,-2,0,8,2,1,-5
MT1-MMP act inh RFP,-1,-1,0,9,8,0,0
